# Assay outcomes as filed in PubChem BioAssay.
# Beta apoptosis: blocks beta cell apoptosis | 300,000 tested, 0.8% active | INS-1E cytokine-induced death, ATP luminescence, 48 h; percent of positive-control rescue, neutral wells zero | protection from apoptosis, % (test concentration not listed);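 active = all replicates at 75% or more, or half of them and the mean; inconclusive = half reach 75% but not the mean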;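 also: 0% = cytokine-treated negative control wells and 100% = positive control rescue; higher means more ATP so stronger rescue from cytokine killing; wells of about 40 µL received 100 nL stock; the first replicate is given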
# T cruzi repl: blocks replication of Trypanosoma cruzi; T. cruzi beta-gal in NIH3T3, luminescence, 90 h; AID 1885; inhibition, % (concentration not given with the values); 300,000 tested, 1.4% active;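 active = mean inhibition across valid replicates above about 55%, limit read from the data; inconclusive = mean below that limit but half or more replicates reach it; inactive = mean below it, under half of replicates reach it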;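 also: signal also drops with host cell toxicity which is not excluded here; 0% = plate median of DMSO wells and 100% = zero luminescence signal; higher percent means less beta-gal luminescence so fewer parasites; stock transfer was 50 nL into about 50 µL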
# RanGTP-Imp inh: inhibitors of RanGTP-importin-beta interaction, primary screen, biochemical, FRET, CFP-Ran, YFP-importin-beta, homogeneous | cell-free CFP-Ran/YFP-importin-beta FRET ratio | inhibition, % (test concentration not listed) | 300,000 tested, 1.1% active | AID 2216;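 active = most replicates above 15%; inconclusive = exactly half above 15%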;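 also: 0% = DMSO wells and 100% = Ran loaded with GDP instead of GTP; wells of about 40 µL received 100 nL stock; the first replicate is given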
# MLL AF4-AF9 inh: MLL-AF4/AF9 protein interaction inhibition; AlphaScreen, biotin-AF4 peptide binding to FLAG-AF9; inhibition, % at 10 µM; P42568; 350,000 tested, 0.47% active;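 active = every replicate reaching a set inhibition limit, whatever the replicate mean, cut at about 25% in these data; inconclusive = mean inhibition reaches that limit but some replicates miss it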;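 also: 0% = plate neutral control median and 100% = total signal loss; the record names both 10 and 1 µM as test concentration; the first replicate is given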
# Vif A3G: inhibitors of Vif binding to APOBEC3G peptide, primary screen, biochemical, TR-FRET, GST-Vif 1-94, biotin-A3G peptide, dose response retest (AID 1117319) | TR-FRET GST-Vif / biotin-A3G peptide binding; higher % means a stronger effect; test concentration not given here; strong numbers were not always called active | one-dose inhibition, %; IC50 in µM for titrated hits | 260,000 tested, 0.57% active;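 active = above the screen mean plus three standard deviations and confirmed in dose response; inconclusive = results disagree or hit not tested in dose response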;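 also: Vif residues 1-94 fused to GST binding biotinylated APOBEC3G peptide 110-148; 0% = full assay without inhibitor and 100% = GST in place of GST-Vif; retest series ran down from 100 µM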
# LANA-H2A inh: blocks KSHV LANA binding to histone H2A/H2B; cell-free LANA-H2A/H2B peptide, fluorescence polarization; inhibition, % (no concentration beside the values); 320,000 tested, 0.6% active; AID 2629; in the data active = inhibition mostly above about 10%, no sharp cut-off; inactive = mostly below about 6.7%;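 also: stock transfer was 7.5 nL into about 10 µL; 0% = median of vehicle wells and 100% = median of positive control wells; one replicate is shown; the record names a cut of 25% in any replicate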
# Target sequence (Q9QR71 whole entry, looked up): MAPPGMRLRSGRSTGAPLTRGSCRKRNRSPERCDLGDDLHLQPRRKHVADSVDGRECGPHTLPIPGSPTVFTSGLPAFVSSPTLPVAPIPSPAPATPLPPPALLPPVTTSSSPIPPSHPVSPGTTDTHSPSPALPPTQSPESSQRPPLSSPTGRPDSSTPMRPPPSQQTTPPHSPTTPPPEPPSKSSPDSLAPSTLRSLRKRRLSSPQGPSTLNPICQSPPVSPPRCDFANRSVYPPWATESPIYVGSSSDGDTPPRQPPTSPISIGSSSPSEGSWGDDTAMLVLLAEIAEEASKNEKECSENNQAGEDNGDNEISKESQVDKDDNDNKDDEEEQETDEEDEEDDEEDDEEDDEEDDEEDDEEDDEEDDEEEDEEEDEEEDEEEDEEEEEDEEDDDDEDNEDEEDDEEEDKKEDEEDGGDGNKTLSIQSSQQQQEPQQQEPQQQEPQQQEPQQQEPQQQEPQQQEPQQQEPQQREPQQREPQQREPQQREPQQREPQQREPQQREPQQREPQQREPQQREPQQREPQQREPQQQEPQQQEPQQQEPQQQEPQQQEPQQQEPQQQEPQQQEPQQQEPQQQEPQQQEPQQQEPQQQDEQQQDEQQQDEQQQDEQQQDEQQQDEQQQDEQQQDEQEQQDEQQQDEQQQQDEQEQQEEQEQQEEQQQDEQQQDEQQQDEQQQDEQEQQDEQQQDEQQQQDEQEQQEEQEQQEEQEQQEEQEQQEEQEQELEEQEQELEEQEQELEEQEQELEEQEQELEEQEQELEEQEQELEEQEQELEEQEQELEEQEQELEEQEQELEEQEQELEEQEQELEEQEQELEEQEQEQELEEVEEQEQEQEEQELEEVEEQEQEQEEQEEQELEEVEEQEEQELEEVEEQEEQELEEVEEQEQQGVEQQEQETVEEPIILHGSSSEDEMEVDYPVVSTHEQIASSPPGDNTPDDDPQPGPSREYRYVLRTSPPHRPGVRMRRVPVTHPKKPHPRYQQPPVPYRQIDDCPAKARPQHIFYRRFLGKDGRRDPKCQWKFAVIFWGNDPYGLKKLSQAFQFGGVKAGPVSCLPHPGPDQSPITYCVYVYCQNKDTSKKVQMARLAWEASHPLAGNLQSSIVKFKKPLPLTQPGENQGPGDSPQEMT
# Bfl-1 A1 inh: inhibitors of the anti-apoptotic protein A1, read as caspase activation; MEF A1-2A-BIM cells, Caspase-Glo 3/7 luminescence, 3 h; percent of clofoctol response, vehicle zero; caspase activation, % (concentration not given with the values); 330,000 tested, 0.066% active;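 active = over half of replicate activation scores above 10%, or exactly half above 10 with the replicate mean above 10; inconclusive = replicate mean below 10 yet half the replicates above 10; inactive = over half of replicates below 10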;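 also: wells of about 30 µL received 50 nL stock; many hits fall short of the cut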
# Calb FLC: affects C. albicans growth with fluconazole | AID 1979 | growth inhibition, % (no concentration beside the values) | 300,000 tested, 0.57% active | C. albicans CaCi-2 (fluconazole-resistant clinical isolate) + fluconazole, Alamar Blue growth, 48 h;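 active = most replicates above 75%; inconclusive = exactly half above 75%; inactive = most below 75%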;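 also: all wells also contain fluconazole at 8 µg/ml as a sub-toxic cotreatment; 0% = median of DMSO wells and 100% = median of geldanamycin control wells; wells of about 8 µL received 7.5 nL stock; the first replicate is given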
# * hit, by the source's call; ? = inconclusive; . = not tested or not shown; & = joins results of further samples. Outcome played no part in choosing rows, and some 4.3% of all compounds hit somewhere here.
SMILES,Beta apoptosis,T cruzi repl,RanGTP-Imp inh,MLL AF4-AF9 inh,Vif A3G,LANA-H2A inh,Bfl-1 A1 inh,Calb FLC
CC(=O)N(CN1C(=O)C2C3C=CC(C3)C2C1=O)c1cccc(Cl)c1 (stereo not drawn),-6,-6,-0.4,-0.6,.,2.5,0.2,-3
CSc1ncccc1C(=O)Nc1ccccc1N1CCOCC1,-3,.,.,-0.6,.,-1.6,0.0,.
COc1ccc(OC)c2c1C(=O)c1ccccc1C2=O,-7,3,-3.3,.,?,15,0.0,-1
Cc1ccc2nc(NC(=O)Cn3cc4c(n3)CCCCC4)sc2c1,-3,-4,?,-3.3,1%,6.3,-1.2,6
O=C(CN1C(=O)NC2(CCCC2)C1=O)N1CCN(S(=O)(=O)c2ccccc2Br)CC1,-3,-6,-3.0,-9.0,.,1.3,0.1,-1
CC(=O)Nc1ccc(C(=O)OCc2ccc(F)cc2Cl)cc1,4,14,1.8,0.5,11%,-15,-0.1,9
COc1ccccc1CCc1nnc(CCC(=O)NC(C)Cn2nc(C)cc2C)o1 (stereo not drawn),2,-2,-1.2,-0.9,.,-3.8,0.8,0
O=C(Cn1cnc2ccccc21)N/N=C/c1cccnc1,-4,-4,5.9,-1.2,.,-4.1,-0.9,2
CCOc1ccccc1NC(=O)COn1nnc2ccc(Cl)cc21,-6,11,-0.4,.,?,4.0,0.5,1
O=C(NCC1CCCO1)C1CCC(=O)N1CCc1ccccc1 (stereo not drawn),3,-9,6.2,.,12%,1.4,-0.2,-3
Cc1cccc(/C(N)=N/OC(=O)c2cccnc2)c1,-5,-13,-0.2,0.4,-1%,-6.5,-6.3,7
CC(C)(C)N1NC2(CCCCC2)NC1=S,-5,-15,5.1,-16,.,-28,0.7,-1
COCOc1ccc(-c2cc(=O)c3c(OCOC)cc(OCOC)cc3o2)cc1,5,20,-0.2,.,.,1.8,0.8,-8
C/C(=N\NC(=O)c1c(C)nc2ccccn12)c1ccc(C(C)(C)C)cc1,.,-3,-3.3,-1.1,.,-2.2,0.9,-3
Cc1ccc(NC(=O)N(CCCN2CCOCC2)Cc2cccs2)cc1C,.,0,4.7,-1.2,-9%,-0.2,2.5,8
O=C(COc1ccc(Cl)cc1)N1CCN(C(=O)c2cccc(F)c2)CC1,0,-5,1.6,.,31%,-2.4,0.6,5
C/C(CC(=O)Nc1cccc(C(F)(F)F)c1)=N\NC(=O)Cc1ccccc1,-5,9,1.4,-0.1,-9%,1.5,0.8,-14
COC(=O)C1(CCSC)NC(c2ccccc2F)C2C(=O)N(c3ccc4c(c3)OCCO4)C(=O)C21 (stereo not drawn),2,-2,5.8,3.3,-9%,4.5,-0.8,-28
CCOC(=O)N(NC(=O)C(O)(C(C)C)C(C)C)c1ccccc1,-3,-18,5.4,-3.0,2%,9.1,-0.2,5
COc1ccc(Cl)cc1NCCC(O)c1ccc(F)cc1 (stereo not drawn),3,-6,0.2,13,.,-4.4,-0.4,7
Cc1cc(C(=O)Nc2ccccc2)oc1C,4,-36,?,.,1%,-3.2,-0.4,24
O=S(=O)(Nc1ccccc1N1CCOCC1)c1c(F)cc(F)cc1Br,-3,.,.,4.2,.,9.7,1.0,.
O=C(CNC(=O)C1CCCCC1)NNC(=O)c1ccc(Cl)cc1Cl,7,-8,1.4,-2.3,.,-1.5,-0.4,2
CCCN(CCO)Cc1ccc(Cl)c(Cl)c1,0,0,-1.9,.,-1%,3.8,0.1,-7
N/C(=N\OS(=O)(=O)c1ccccc1)c1ccncc1,-6,-21,6.0,.,4%,5.7,-0.2,6
# Next entries
SMILES,Beta apoptosis,T cruzi repl,RanGTP-Imp inh,MLL AF4-AF9 inh,Vif A3G,LANA-H2A inh,Bfl-1 A1 inh,Calb FLC
O=C(Nc1ccc([N+](=O)[O-])cc1)C1COc2ccccc2O1 (stereo not drawn),2,-7,7.6,-1.7,.,-0.9,0.7,-2
COc1ccc2[nH]c3c(N4CC(C)OC(C)C4)ncnc3c2c1 (stereo not drawn),6,3,-4.1,.,1%,3.4,-0.3,3
CCCNC(=O)c1ccc(N2CCC3(CC2)CC(c2ccccc2)=NO3)c(N)c1,7,-7,-3.4,0.5,.,-0.1,0.3,17
Cn1cc(CN2CCCC(C(=O)c3ccc(-c4ccccc4)c(F)c3)C2)cn1 (stereo not drawn),-7,42,-1.4,9.4,?,6.8,-0.1,-16
Cc1ccc(S(=O)(=O)n2c(CN3CCCC(C)C3)nc3ccccc32)cc1 (stereo not drawn),19,33,-0.3,.,-4%,1.8,-0.9,2
N#CC1=C(N)SC2(CCCCC2)SC1c1ccccc1 (stereo not drawn),1,-17,5.8,.,-1%,-2.8,0.6,-1
COC(=O)c1cc(S(=O)(=O)N2CCOCC2)c(Cl)cc1N1CCOCC1,-3,-12,-3.1,.,-2%,7.2,1.1,-5
Nc1nnc(SCC(=O)N2CCN(c3cccc(Cl)c3)CC2)n1-c1ccccc1,1,-1,-12,.,?,-4.8,0.2,14
COc1ccccc1N1CCN(C(=O)CCNC(=O)c2ccco2)CC1,-9,.,.,?,-2%,-6.1,0.8,.
CS(=O)(=O)N(Cc1ccc(C(=O)NN=C2CCCC2)cc1)c1ccccc1,-2,-2,-0.3,.,4%,0.6,0.5,1
CCOc1ccc(CCNC(=O)COC(=O)c2nccnc2N)cc1OCC,-12,-10,.,2.1,.,-4.5,0.4,0
O=C(CCN1c2ccccc2Sc2ccccc21)Oc1ccccc1,-6,-3,-2.3,-1.1,1%,4.7,0.3,-3
C/C(N)=C(/C#N)C(=O)COC(=O)c1cc(-c2cccc(Br)c2)nc2ccccc12,-5,48,-3.8,-4.2,.,2.5,-0.1,-5
Cc1ccc(Nc2nc3c(s2)CCC3)c(C)c1,-5,12,2.4,.,.,-7.8,1.7,-7
C=CCC(NCc1ccccc1)c1ccccc1 (stereo not drawn),-7,-10,8.6,.,.,0.9,0.0,13
Cc1ccc(-n2nc(C)c3c2OC(N)=C(C#N)C3c2ccncc2)cc1 (stereo not drawn),1,-7,1.8,.,30%,-4.8,1.2,33
S=C(NCCNCc1ccccc1)NC1CCCCC1,19,39,-0.3,.,?,-1.0,0.3,-4
COc1ccc(NC(=O)CCC(=O)c2ccc(Cl)cc2)cn1,-3,.,.,-1.6,.,-4.4,1.0,.
O=C(NCc1ccc2c(c1)OCO2)C1CCC(CNc2c(N3CCCC3)c(=O)c2=O)CC1 (stereo not drawn),-1,-24,-2.5,1.0,-2%,0.3,-0.3,-1
CCn1c(SCC(=O)Nc2ccccc2)nc2ccccc2c1=O,-3,-7,6.2,-4.6,.,-0.8,2.2,-1
O=C(CSc1nc2ccc(Cl)cc2[nH]1)c1ccc2c(c1)OCO2,2,-17,0.8,.,2%,4.1,0.8,3
Cn1cccc1C(=O)NNC(=O)c1ccccc1Br,-5,-9,?,-1.0,7%,-1.7,-2.1,3
Cc1nnc(C)n1/N=C/c1ccc2c(c1)OCCO2,-2,-15,1.2,.,5%,1.5,0.3,6
CC(C)(C)CN1CCN(Cc2cccnc2)CC1CCO (stereo not drawn),-7,4,-1.0,-10,-11%,-4.8,-0.5,-11
COc1ccc(CCNC(=O)c2cc(-c3cc(Cl)ccc3O)n[nH]2)cc1OC,4,9,-3.5,2.3,5%,-4.4,1.7,-8
# (more compounds)
SMILES,Beta apoptosis,T cruzi repl,RanGTP-Imp inh,MLL AF4-AF9 inh,Vif A3G,LANA-H2A inh,Bfl-1 A1 inh,Calb FLC
Cc1cc(C)c2c(N)c(C(=O)c3ccc(Cl)cc3Cl)sc2n1,16,39,4.4,.,.,3.9,0.0,-5
O=[N+]([O-])c1ccc(N2CCN(S(=O)(=O)c3ccccc3)CC2)cc1,-1,5,-18,0.8,.,2.4,0.4,-27
CCOC(=O)C1CCN(S(=O)(=O)c2ccc3c(c2)CCCN3C(C)=O)CC1,-4,4,-3.4,.,9%,3.5,-0.2,5
Cc1noc(N)c1C(=O)Nc1ccccc1F,-1,5,2.7,.,0%,-8.4,-0.1,-2
CN(C)CCNC(=O)Cn1ccc2cc(S(=O)(=O)N3CCCCCC3)ccc21,-4,37,-0.9,4.8,.,1.2,1.2,-7
O=C(NCc1ccco1)c1ccc([N+](=O)[O-])o1,-3,73*,3.0,-3.1,30%,4.0,0.8,25
CCC(=O)NCc1c(Cl)cccc1-n1cccc1,-5,-13,6.6,.,0%,-0.3,0.4,2
COc1ccc(NC(=O)C(=O)NCC(c2ccco2)N2CCc3ccccc32)cc1 (stereo not drawn),.,4,-3.4,.,-1%,-2.2,1.6,3
CCC(C)(C)C1CCC2(CC1)NC(=O)N(CC(=O)Nc1cc(C(F)(F)F)ccc1N1CCOCC1)C2=O (stereo not drawn),6,15,6.4,-1.2,.,3.8,0.2,-2
N/C(=N\OC(=O)c1ccc2c(c1)OCO2)c1ccc([N+](=O)[O-])cc1,0,2,-0.9,-2.8,-4%,1.6,-4.4,1
COc1ccc(F)cc1C(=O)C1CCCN(C(=O)CCc2ccccn2)C1 (stereo not drawn),.,11,-1.7,-14,-1%,-0.5,-0.8,4
O=c1cc(-c2ccccc2)cc(-c2ccccc2)n1O,43,-22,0.2,.,.,3.1,1.3,1
Oc1ccc(Br)cc1-c1cc(-c2ccccc2)n[nH]1,21,3,-9.2,.,8%,-1.5,-0.8,8
COc1ccc(-c2cnc[nH]2)cc1,-4,?,0.3,0.6,3%,3.8,-0.3,-1
Cc1ccc(NC2Sc3ccccc3NC2=O)cc1Cl (stereo not drawn),7,-4,-3.2,-34,?,-0.1,0.0,12
Cc1ccc(-n2nc3c(c2NC(=O)c2ccc4c(c2)OCO4)CSC3)c(C)c1,-4,5,-0.1,.,-3%,-4.3,0.3,-9
O=C(O)c1ccccc1NSc1ccccc1[N+](=O)[O-],3,-10,3.1,0.0,.,0.5,-0.6,16
CCC(C)C(NC(=O)C(N)CC(C)C)C(=O)NC(CCC(=O)OCc1ccccc1)C(N)=O (stereo not drawn),-2,6,6.0,.,6%,6.3,0.9,-1
CC(C)C(NC(=O)c1ccc(Cl)cc1)C(=O)NC1=NCCS1 (stereo not drawn),3,-11,1.0,.,2%,-6.6,0.6,10
O=C(OCC(=O)N1CCN(C(=O)c2ccco2)CC1)c1cc(-c2ccc(F)cc2)nc2ccccc12,5,-12,4.2,.,-5%&-2%,2.1,-0.2,7
COC(=O)[C@@]12CCCCN1[C@H](c1ccc(-c3ccc(C(C)=O)cc3)cc1)[C@H]1C(=O)N(C)C(=O)[C@H]12,13,-5,-3.4,-1.6,.,-3.4,0.3,7
CN(C)C(=O)c1ccccc1Sc1ccc(Cl)cc1Cl,-4,-6,-0.3,.,7%,-4.7,-0.8,-3
COc1ccccc1C1C=C(c2ccc(Cl)cc2)Nc2nc(N3C(=O)CCC3=O)nn21 (stereo not drawn),-4,.,.,.,6%,2.7,-0.2,.
Cc1ccc(NC(=O)CCNC(=O)c2ccc(Br)cc2)cc1S(=O)(=O)N1CCCCCC1,2,7,0.3,-3.6,.,0.7,0.3,3
CCOC(=O)c1c(C)[nH]c(C)c1C(=O)CSc1nc(N)cc(N)n1,-8,-5,-4.3,.,3%,1.2,0.9,4
O=S(=O)(NCCc1ccccn1)c1cc(Cl)cc(Cl)c1O,1,.,.,-3.6,.,-25,-0.7,.
